# From PubChem
# PMP22 txn – PMP22 gene transcription modulation; AID 1508649; Potency, µM (highest dose often 57.5 µM), inactives show at the highest dose activity change, negative = inhibition, actives largely listed as inhibitors; S16 Pmp22-F2sN Schwann cells (luciferase reporters placed in the Pmp22 gene), FLuc/NLuc coincidence luminescence, 24 h; hit rate 2% among 43,000; active = clear falling dose curves in both reporters; inconclusive = both reporters move, but less clearly or upward; inactive = either reporter flat; the % is the NLuc reporter signal; also: % is scaled to controls: 0 for no effect and ±100 for the full control effect; some results filed as inactive show a strong effect at the top dose
#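 Reporter cells (S16 Pmp22-F2sN, 500–1,000 per well) exposed to compounds for 24 h, 37C, 5% CO2; lysis with FLuc read after 10 min, then Stop&Glo and NLuc read after 10 min.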
# HTT prom inh – inhibits huntingtin promoter activity; Potency, µM (highest dose often 57.5 µM), inactives show at the highest dose activity change, negative = inhibition, most hits filed as inhibitors; HEK293 HTT promoter firefly luciferase reporter (activity 0% = vehicle and -100% = no light), 24 h; hit rate 0.93% among 48,000; active = well fitted inhibition curve with a large enough effect; inconclusive = small, poorly fitted or top-dose-only effect; inactive = no such curve, though single readings can be large or run the other way; also: nearly all actives have a fitted effect of over 50% in size
#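 HEK293 cells carrying firefly luciferase reporters were seeded at 2,500 per well in Opti-MEM and cultured for 24 h. They were then treated with compounds at up to 57.5 uM final for 24 h at 37 degrees C before Dual-Glo luminescence readout.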
# Starred values were filed as active, the others as inactive; ? = inconclusive; nt = no result given; & = joins results of further samples; [ ] = remark or other dose. Potency is read from the fitted curve at half-maximal effect.
# Every second line gives: PMP22 txn	HTT prom inh
- CCCN(CCC)CCCNC(=O)Cn1cc2c(n1)-c1c(oc(C(=O)N3CCCC3)c1C)CC2
→ ?	-8.9%
- COc1ccc(NC(=O)CCc2c(C)nc3c(-c4ccccc4)c(C)nn3c2C)cc1Cl
→ -9.8%	-24.7%
- Cc1ccc(-c2csc(-c3c(N)c(C(=O)c4ccc5c(c4)OCO5)n4ccccc34)n2)cc1
→ -8.2%	-0.2%
- CCOc1ccccc1CNC(=O)c1ccc(Cn2c(SCc3ccccc3)nc3cccnc32)cc1
→ ?	0.2%
- CCOc1cccc(C(=O)Nc2ccc(S(=O)(=O)N(Cc3ccccc3)c3ccccc3)cc2)c1
→ ?	?
- COc1ccc(-c2noc(-c3ccc(NCCc4ccccc4)c([N+](=O)[O-])c3)n2)cc1OC
→ 24.1%	-9.8%
- CCc1ccc(N(CC)C(=O)c2ccc3c(=O)n4c(nc3c2)CCCCC4)cc1
→ ?	-26.1%
- Cc1cccc(NC(=O)Cn2cc(C(=O)C3CCCCC3)c3ccccc32)c1
→ -16.7%	?
- N#Cc1ccccc1NC(=O)CSc1ncn[nH]1
→ -18.3%	-2.4%
- Cc1ccccc1CNCCSc1nnnn1C
→ -12.5%	?
- COCc1nc2ccccc2n1CCOc1cccc(C)c1
→ 22.7%	-13.8%
- CCOC(=O)c1ccc(NC(=O)CN2C(=O)CC(c3ccc(C)c(C)c3)=Nc3ccccc32)cc1
→ 4.8%	27.7%
- CCC(Nc1ccc(-c2nc(-c3ccco3)no2)cc1[N+](=O)[O-])c1ccccc1 (stereo unspecified)
→ -37.5%	-8.5%
- CCc1ccc(-n2nc(CO)c(C(=O)NCc3ccccn3)n2)cc1
→ -12.9%	0.9%
- COc1ccc(N2CCN(S(=O)(=O)CCNC(=O)Cc3ccc(-c4ccccc4)cc3)CC2)cc1
→ 10.5µM*	-27.8%
- Cc1cc(C)cc(OCC(=O)N(Cc2ccc(Cl)cc2)CC2CCCO2)c1 (stereo unspecified)
→ -4.3%	-14.9%
- CCOc1ccc2nc(N3CCCC(C(=O)NCCc4ccc(Cl)cc4)C3)sc2c1 (stereo unspecified)
→ ?	-14.7%
- COc1cccc(CNC(=O)CSC2=Nc3ccccc3C3=NC(C(C)C)C(=O)N23)c1 (stereo unspecified)
→ -10.5%	-17.0%
- CCCOC(=O)C(C)n1nnc2sc(-c3ccccc3)cc2c1=O (stereo unspecified)
→ ?	20.8%
- CC(=O)N1c2ccc(S(=O)(=O)NCC3CCC(C(=O)Nc4ccc(F)cc4)CC3)cc2CC1C (stereo unspecified)
→ ?	?
- Clc1ccc(CNc2cc(-c3ccccc3)nc3nncn23)cc1
→ ?	?
- COc1cccc(NC(=O)c2sc3nc(C)c(C(=O)Nc4ccc(C)cc4C)c(-c4ccco4)c3c2N)c1
→ -5.8%	-12.5%
- COCCN(Cc1ccco1)C(=O)Cn1ncc2c([nH]c3ccccc32)c1=O
→ -9.0%	-2.1%
- COc1ccc(NC(=O)c2cc3c(-c4ccccc4F)nn(C)c3s2)c(OC)c1
→ ?	-19.1%
- CCc1nc(-c2ccc(C)c(S(=O)(=O)N3CCN(c4ccc(C(C)=O)cc4)CC3)c2)no1
→ -20.8%	?
- Cc1c2cnn(CC(=O)NCCc3ccccc3)c(=O)c2c(C)n1Cc1ccccc1
→ -28.8%	1.8%
- CCOc1ccc(NC(=O)Cn2cc(C(=O)c3ccc(OC)cc3)c(=O)c3cc4c(cc32)OCO4)cc1
→ 5.4%	-6.4%
- CC(C)c1ccc(C2CC(=O)N3CN(C4CCCCC4)CSC3=C2C#N)cc1 (stereo unspecified)
→ ?	-25.6%
- Cc1c(Cl)cccc1NC(=O)Cn1c(=O)n(Cc2ccco2)c(=O)c2oc3ccccc3c21
→ 27.6%	-4.5%
- O=C(COc1ccccc1)NC1CC(=O)N(c2ccc3c(c2)OCCO3)C1 (stereo unspecified)
→ -8.4%	-0.1%
- CCOC(=O)c1c(C)c(-c2ccccc2)n(CC(=O)NCCc2cccc(C)c2)c1C
→ ?	1.0%
- Cn1c(=O)cc(SCC(=O)N2CCN(c3ccccc3F)CC2)c2ccc(Cl)cc21
→ ?	-9.7%
- Cc1cccc(N2CCN(C(=O)CCCn3ncn4c(cc5occc54)c3=O)CC2)c1C
→ ?	?
- O=C(NCc1cccs1)C1CCN(C(=O)N2CCOc3ccccc32)CC1
→ 3.3%	-12.8%
- O=C(c1ccc(C(F)(F)F)cc1)N1CCC(c2noc(-c3ccc(S(=O)(=O)N4CCCC4)cc3)n2)CC1
→ ?	?
- CCOC(=O)c1c(CSc2ccccc2)n(C)c2cc(Br)c(O)c(CN(C)C)c12
→ nt	-14.7%
- COc1cc(OC)c(NC(=O)c2ccc3c(c2)N(Cc2ccc(C)cc2)CCS3)cc1Cl
→ -91.9%	-13.6%
- CCOc1cccc(C2Oc3nc(SC)nnc3-c3ccccc3N2C(C)=O)c1OC (stereo unspecified)
→ -23.6%	-4.0%[11.5 µM]
- Cc1ccc(-c2nc(S(=O)(=O)c3ccc(C)cc3)c(N3CCCCC3)o2)cc1
→ ?	?
- CN(C(=O)CSc1cn(CC(=O)N2CCCCCC2)c2ccccc12)c1ccccc1
→ ?	-13.5%
- Cc1ccc(S(=O)(=O)NCC2CCC(C(=O)N(C)Cc3ccccc3)CC2)cc1 (stereo unspecified)
→ -26.4%	?
- N=C(N)c1ccc2cc(OC(=O)c3ccc(N=C(N)N)cc3)ccc2c1
→ nt	-2.5%&-13.3%
- CCC(=O)N1CCc2cc(S(=O)(=O)NC(C(=O)NCCc3ccccc3)C(C)C)ccc21 (stereo unspecified)
→ -21.7%	?
- COc1cc2ccccc2cc1C(=O)Nc1cccc(-c2nc3cc(C)ccc3o2)c1C
→ 15.4%	-0.8%
- CCN(C(=O)CSc1nc2ccccc2[nH]1)c1ccccc1
→ 20.2%	-12.4%
- CCOC(=O)c1c(NC(=O)Cc2coc3cc(C)ccc23)sc2c1CCCC2
→ -22.1%	-14.4%
- COc1cccc2c1Oc1ncccc1N(C(=O)CCC(=O)NCc1ccc(N(C)C)cc1)C2
→ 3.4%	-7.2%
- CCOc1ccc(C(=O)NC2CC(=O)N(c3ccc(C)cc3)C2)cc1OCC (stereo unspecified)
→ 43.7%	-6.2%
- CCCNC(=O)CCC(=O)N1Cc2ccccc2Oc2ncccc21
→ 6.9%	6.8%
- COc1ccc(C(=O)NCCn2cc(SCc3c(F)cccc3Cl)c3ccccc32)cc1
→ ?	?
- COC(=O)c1cc(NC(=O)Cn2ncc3c2-c2ccccc2OC3)cc(C(=O)OC)c1
→ 7.6%	-17.8%
- Cc1ccccc1OC(=O)c1snnc1C
→ 3.2%	-1.8%
- COc1ccc(CCNC(=O)c2ccc(Cn3c(=O)c4ccccc4n(Cc4ccc(C)cc4)c3=O)cc2)cc1OC
→ ?	4.0%
- COc1cccc(C(=O)c2cn(CC(=O)Nc3cccc(Cl)c3C)c3nc(C)ccc3c2=O)c1
→ 7.3%	-5.9%
- O=C(c1ccccc1)n1nc(-c2ccco2)nc1NCc1ccccc1Cl
→ ?	-0.9%
- Cc1ccc(S(=O)(=O)N(CC(=O)Nc2cccnc2)c2cc(Cl)ccc2C)cc1
→ ?	?
- CCCNC(=O)C1CCC(Cn2c(=O)c3sccc3n(CC(=O)N3CCC(C)CC3)c2=O)CC1 (stereo unspecified)
→ 17.7%	1.2%
- COc1ccc(NC(=O)C2CCCN(S(=O)(=O)c3ccc4[nH]c(=O)ccc4c3)C2)cc1OC (stereo unspecified)
→ 1.3%	-4.1%
- CCCCOc1ccc(C(=O)Nc2cccc(-c3nc4ccccc4o3)c2C)cc1
→ -9.5%	-4.1%
- Cc1ccc(NC(=O)CCC(=O)N2CCSc3ccccc32)cc1Cl
→ -0.9%	-32.8%

# New compounds follow
# Every second line gives: PMP22 txn	HTT prom inh
- COc1ccc(NC(=O)c2cn(-c3ccccc3)nc2-c2ccc(C)cc2)cc1
→ -4.4%	5.8%
- Cc1cccc(-c2nc3ccccc3n2Cc2ccccc2)c1
→ -12.1%	-4.9%
- NC(=O)CSc1oc(-c2cccs2)nc1S(=O)(=O)c1ccc(Br)cc1
→ 27.4%	-13.3%
- COc1cccc2c1cc1c(=O)n(CC(=O)NCc3ccc(N(C)C)cc3)nc(C)n12
→ -4.2%	-5.9%
- Cc1ccn2c(Nc3ccccc3C)c(-c3ccc(N4CCOCC4)cc3)nc2c1
→ -21.2%	-24.4%
- Cc1ccc(CNC(=O)C(C)n2nc(C)c3sc4ccccc4c3c2=O)cc1 (stereo unspecified)
→ -6.5%	-12.6%
- O=C(Nc1cccc(Cl)c1Cl)c1cc(S(=O)(=O)N2CCCc3ccccc32)ccc1F
→ 2.4%	?
- CCc1nn2c(-c3ccco3)ccnc2c1-c1ccccc1
→ -16.5%	8.9%
- Cc1cccc(CN2C(=O)c3ccccc3S(=O)(=O)c3ccc(C(=O)NCCC4=CCCCC4)cc32)c1
→ -8.9%	-9.7%
- CCCCNC(=O)CSc1c2c(nc3ccc(Cl)cc13)CCCC2
→ ?	-2.8%
- COc1ccc(-c2nc(CSCC(=O)NCCC(C)C)c(C)o2)cc1OC
→ 4.2%	-25.2%
- CCOC(=O)c1c(C)oc2ccc(N(C(=O)c3ccncc3)S(=O)(=O)c3ccc(CC)cc3)cc12
→ ?	?
- Cc1ccc(NC(=O)Cn2cnc3c(oc4ccccc43)c2=O)cc1Cl
→ -23.7%	7.8%
- CSc1ncc(C(=O)NCc2ccccc2Cl)c(C(F)(F)F)n1
→ 7.3%	-7.3%
- Cc1ccc2c(CC(=O)NCc3ccccc3)coc2c1C
→ ?	-13.8%
- CC(C)CC(=O)Nc1c(C(=O)N2CCN(c3ccccc3)CC2)oc2ccccc12
→ 47.1%	?
- O=C(COc1ccc(F)cc1)NCC(c1ccc(Cl)cc1)N1CCCCC1 (stereo unspecified)
→ -1.7%	-29.0%
- CCOc1ccc(CNC(=O)c2c(C)nn(-c3ccc(F)cc3)c2-n2cccc2)cc1
→ ?	?
- Cc1ccc(NC(=O)Cn2cc(S(=O)(=O)c3ccccc3)c(=O)c3cc4c(cc32)OCO4)cc1
→ -1.5%	-27.7%
- CCN(C(=O)c1sc2nc3n(c(=O)c2c1C)CCCCC3)c1ccccc1F
→ ?	-6.9%

# Full records, quoted from the list:
# `CCOc1ccc(CNC(=O)c2c(C)nn(-c3ccc(F)cc3)c2-n2cccc2)cc1` as listed: PMP22 txn = ?; HTT prom inh = ?
# `Cc1ccn2c(Nc3ccccc3C)c(-c3ccc(N4CCOCC4)cc3)nc2c1` as listed: PMP22 txn = -21.2%; HTT prom inh = -24.4%

# Following part:
# Every second line gives: PMP22 txn	HTT prom inh
- O=C(CN1C(=O)COc2ccc(S(=O)(=O)N3CCOCC3)cc21)N1CCN(c2cccc(C(F)(F)F)c2)CC1
→ ?	-6.8%
- COc1ccc(OC)c(CNC(=O)C2CCCN(c3ncnc4onc(-c5ccc(F)cc5)c34)C2)c1 (stereo unspecified)
→ -11.6%	-4.9%
- CCCCN(C)CCCNC(=O)c1cc(=O)[nH]c2ccc(S(=O)(=O)N3CCCCC3)cc12
→ -4.6%	-8.9%
- Cn1c(=O)c2c(n3ncnc13)NC(=O)CC2c1cccc(F)c1 (stereo unspecified)
→ -4.8%	-14.6%
- CCc1cccc(C)c1NS(=O)(=O)c1ccc2c(c1)CC(C)N2C(=O)C1CC1 (stereo unspecified)
→ -2.7%	?
- COc1ccccc1NC(=O)CSc1ccc(-c2sc(C)nc2C)nn1
→ -61.0%	-11.8%
- COc1ccc(NC(=O)C(CC(C)C)NS(=O)(=O)c2ccc3c(c2)oc(=O)n3C)cc1Cl (stereo unspecified)
→ -13.2%	-27.1%
- CCc1ccc(NC(=O)N2CCN(c3nnc(C)c4c(C)n(-c5ccc(Cl)cc5)nc34)CC2)cc1
→ ?	?
- CC1(COc2ccc(CC3SC(=O)NC3=O)cc2)CCCCC1 (stereo unspecified)
→ nt	17.4%
- COc1cccc(NC(=O)CN2C(=O)CC(c3ccco3)Sc3ccccc32)c1 (stereo unspecified)
→ -18.1%	-20.0%
- Fc1ccc(-c2noc3ncnc(Nc4ccc(F)cc4F)c23)cc1
→ -6.8%	-24.9%
- COc1cccc(CNC(=O)CCNS(=O)(=O)c2ccc3c(c2)CCCC(=O)N3)c1
→ -44.6%	-11.9%
- NC(=O)c1cc(S(=O)(=O)N2CCN(c3ccc(F)cc3)CC2)cs1
→ ?	?
- CCCCOc1ccc(C(=O)NCCc2sc(-c3ccc(OC)c(OC)c3)nc2C)cc1
→ ?	-30.8%
- O=C(Nc1ccc(F)cc1)[C@@H](c1ccccc1)N1Cc2ccccc2C1=O
→ 9.0%	-9.2%
- CCOCCCNC(=O)C(NC(=O)C1CCC(C)CC1)C(C)C (stereo unspecified)
→ -9.4%	-4.2%
- CCCC(=O)n1nc(-c2cccnc2)nc1NCc1ccc(OC)cc1
→ -21.0%	-11.8%
- CC1=C(C(=O)Nc2cccc(F)c2)C2(CCCCCC2)OC1=O
→ -3.3%	-16.6%
- COc1ccc(NC(=O)c2c(C)oc3ccc(O)c(CN4CCCC(C)C4)c23)cc1Cl (stereo unspecified)
→ ?	?
- Cc1oc(-c2ccccc2Cl)nc1CS(=O)CC(=O)NCc1ccc(Cl)cc1 (stereo unspecified)
→ -12.9%	-12.4%
- Cc1ccccc1-c1noc(-c2ccccc2OCC(=O)Nc2ccccc2[N+](=O)[O-])n1
→ -1.5%	-12.0%
- CCOCCCNC(=O)CCc1nnc2ccc(N3CCN(c4cccc(OC)c4)CC3)nn12
→ -10.4%	1.8%
